MLL AF4-AF9 inh = MLL-AF4/AF9 protein interaction inhibition | 0.47% of 350,000 active | AlphaScreen, biotin-AF4 peptide binding to FLAG-AF9 | inhibition, % at 10 µM;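 active = every replicate reaching a set inhibition limit, whatever the replicate mean, cut at about 25% in these data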;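 note: 0% = plate neutral control median and 100% = total signal loss; the record names both 10 and 1 µM as test concentration; the first replicate is given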
Target sequence (P42568 whole entry, looked up): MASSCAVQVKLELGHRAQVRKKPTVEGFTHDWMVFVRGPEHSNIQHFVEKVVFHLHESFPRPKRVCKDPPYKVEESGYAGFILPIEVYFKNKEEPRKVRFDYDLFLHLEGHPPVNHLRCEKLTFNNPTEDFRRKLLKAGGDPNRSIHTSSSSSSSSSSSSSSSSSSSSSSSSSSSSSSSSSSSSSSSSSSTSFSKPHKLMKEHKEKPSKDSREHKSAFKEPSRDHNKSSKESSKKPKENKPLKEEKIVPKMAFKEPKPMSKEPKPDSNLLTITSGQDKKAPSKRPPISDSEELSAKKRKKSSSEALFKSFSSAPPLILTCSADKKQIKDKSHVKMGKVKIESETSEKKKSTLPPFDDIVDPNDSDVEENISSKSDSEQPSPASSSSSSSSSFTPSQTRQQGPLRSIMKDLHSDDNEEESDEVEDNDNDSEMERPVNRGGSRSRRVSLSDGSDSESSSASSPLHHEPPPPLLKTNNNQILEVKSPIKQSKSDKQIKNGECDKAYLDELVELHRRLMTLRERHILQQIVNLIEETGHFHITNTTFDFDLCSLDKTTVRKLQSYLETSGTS
* marks the source's active call; other numbers are inactive results; & = joins results of further samples. An excerpt (hit frequency here may not be typical).

> CN(C)CC#Cc1ccc([C@@H]2[C@@H](CO)N3C(=O)CN(C(=O)Cc4ccccc4)C[C@@H]23)cc1
  MLL AF4-AF9 inh: 0.2
> COc1ccc(CN(C)C[C@@H]2OCCCC[C@@H](C)Oc3ccc(NS(=O)(=O)c4ccc(C)cc4)cc3C(=O)N([C@@H](C)CO)C[C@H]2C)cc1
  MLL AF4-AF9 inh: -6.2
> O=C(CC1CC1)N1CC(=O)N2[C@H](C1)[C@H](c1ccc(C#Cc3ccc(F)cc3)cc1)[C@@H]2CO
  MLL AF4-AF9 inh: -2.3
> O=C(C1CCCC1)N1C[C@@H]2N[C@H](C1)C2c1ccc(-c2ccccc2F)cc1 (some centres not stated)
  MLL AF4-AF9 inh: -3.1&5.0
> Cc1noc(C)c1S(=O)(=O)Nc1ccc2c(c1)C(=O)N([C@@H](C)CO)C[C@H](C)[C@@H](CN(C)C(=O)NC1CCCCC1)OCCCC[C@H](C)O2
  MLL AF4-AF9 inh: -1.2
> CCCNC(=O)N1CC(=O)N2[C@H](CO)[C@H](c3ccc(-c4ccc(C)cc4)cc3)[C@@H]2C1
  MLL AF4-AF9 inh: 1.3
> O=C(c1ccccn1)N1CC(=O)N2[C@@H](CO)[C@H](c3ccc(-c4cccc(F)c4)cc3)[C@@H]2C1
  MLL AF4-AF9 inh: -6.6
> CN(C)C(=O)c1cccc(-c2ccc([C@H]3[C@@H](CO)N4C(=O)CN(C(=O)C5CC5)C[C@@H]34)cc2)c1
  MLL AF4-AF9 inh: -5.0
> CCc1csc(N2[C@@H](C#N)[C@@H](c3ccccc3C3=CCCC3)[C@@H]2CO)n1
  MLL AF4-AF9 inh: 4.3
> COc1ccc2c3c(n(C)c2c1)[C@H](CO)N(S(C)(=O)=O)CC31CN(CC2CCOCC2)C1
  MLL AF4-AF9 inh: -5.6
> COc1ccccc1C(=O)Nc1ccc2c(c1)C(=O)N(C)C[C@@H](OC)[C@H](C)CN(CC1CC1)[C@H](C)CO2
  MLL AF4-AF9 inh: 3.1
> C[C@H](CO)N1C[C@H](C)[C@H](CN(C)Cc2ccccc2)OCCCC[C@H](C)Oc2ccc(NS(=O)(=O)c3ccc(Cl)cc3)cc2C1=O
  MLL AF4-AF9 inh: 10.7
> O=C(C[C@H]1C[C@H]2c3cc(NC(=O)NC4CCCC4)ccc3O[C@H]2[C@@H](CO)O1)NCc1cccnc1
  MLL AF4-AF9 inh: -9.5
> COc1ccccc1NC(=O)Nc1ccc2c(c1)C(=O)N(C)C[C@@H](OC)[C@@H](C)CN[C@H](C)CO2
  MLL AF4-AF9 inh: 2.5
> CC(C)CC#Cc1ccc([C@@H]2[C@H]3CN(C(=O)Nc4ccc(F)cc4)CC(=O)N3[C@H]2CO)cc1
  MLL AF4-AF9 inh: 4.1
> O=C(C[C@H]1C[C@H]2c3cc(NS(=O)(=O)c4ccc(F)cc4)ccc3O[C@H]2[C@H](CO)O1)N1CCOCC1
  MLL AF4-AF9 inh: -0.4
> CC(=O)N1CC(=O)N2[C@H](CO)[C@H](c3ccc(C#Cc4cccnc4)cc3)[C@H]2C1
  MLL AF4-AF9 inh: -0.5
> CC(=O)N1CC(=O)N2[C@H](C1)[C@H](c1ccc(C#Cc3cccnc3)cc1)[C@@H]2CO
  MLL AF4-AF9 inh: -3.3
> N#C[C@H]1[C@H](c2ccccc2-c2cccc(F)c2)[C@@H](CO)N1C(=O)NC1CCCC1
  MLL AF4-AF9 inh: -9.7
> C[C@H](CO)N1C[C@H](C)[C@@H](CN(C)C(=O)c2cccc(F)c2)Oc2ncc(-c3ccncc3)cc2C1=O
  MLL AF4-AF9 inh: -4.1
> COc1ccc(S(=O)(=O)NC[C@H]2CC[C@H]3[C@H](CN3Cc3cc(F)ccc3F)O2)cc1
  MLL AF4-AF9 inh: -1.0
> CCC(=O)N1CCC2(CC1)CN(CC1CCCCC1)[C@@H](CO)c1c2c2ccc(OC)cc2n1C
  MLL AF4-AF9 inh: 7.6
> Cc1noc(C)c1NC(=O)N(C)C[C@@H]1Oc2ccc(NC(=O)CCCCCC(=O)Nc3ccccc3N)cc2C(=O)N([C@H](C)CO)C[C@H]1C
  MLL AF4-AF9 inh: -0.4
> CC(=O)NC[C@H]1[C@@H](c2ccc(C3=CCCCC3)cc2)[C@@H](CO)N1C(=O)C1CC1
  MLL AF4-AF9 inh: -1.2
> CO[C@H]1CN(C)C(=O)c2cc(NC(=O)C3CCCCC3)ccc2OC[C@@H](C)N(C(=O)c2ccccc2)C[C@H]1C
  MLL AF4-AF9 inh: 1.2

> O=C(C1CCCC1)N1CC(=O)N2[C@H](C1)[C@@H](c1ccc(C#Cc3cccc(F)c3)cc1)[C@@H]2CO
  MLL AF4-AF9 inh: -5.2
> COc1ccc(S(=O)(=O)Nc2ccc3c(c2)C(=O)N(C)C[C@@H](OC)[C@@H](C)CN[C@H](C)CO3)cc1
  MLL AF4-AF9 inh: 0.6
> COc1ccccc1CN1[C@@H]2Cn3c(ccc(C4=CCCCC4)c3=O)[C@H]1[C@@H](C(=O)N(C)C)[C@@H]2CO
  MLL AF4-AF9 inh: -0.5
> CNC(=O)C[C@@H]1CC[C@H]2[C@H](COc3ccc(NC(=O)Nc4ccccc4OC)cc3C(=O)N2C)O1
  MLL AF4-AF9 inh: -0.5
> COc1ccc2c3c(n(C)c2c1)[C@@H](CO)NCC31CCN(Cc2cc(F)ccc2F)CC1
  MLL AF4-AF9 inh: 32.5*
> COc1ccccc1S(=O)(=O)N[C@H]1CC[C@@H](CCn2cc(C3CCCC3)nn2)O[C@@H]1CO
  MLL AF4-AF9 inh: -3.7
> C[C@@H]1CCCCO[C@@H](CN(C)S(=O)(=O)c2ccc(F)cc2)[C@H](C)CN([C@@H](C)CO)C(=O)c2cc(NC(=O)Nc3ccc(C(F)(F)F)cc3)ccc2O1
  MLL AF4-AF9 inh: -4.4
> CCCC#Cc1ccc([C@H]2[C@@H](CO)N3C(=O)CN(C(=O)Nc4ccccc4F)C[C@H]23)cc1
  MLL AF4-AF9 inh: 0.8
> COc1ccc(C#Cc2ccc([C@@H]3[C@H](CO)N4C(=O)CN(C(=O)c5ccncc5)C[C@@H]34)cc2)cc1
  MLL AF4-AF9 inh: -0.4
> CC(C)NC(=O)N1CC2(C1)[C@H](c1ccccc1)[C@@H](CO)N2C(=O)C1CC1
  MLL AF4-AF9 inh: -4.7
> C[C@H]1CN([C@@H](C)CO)C(=O)c2cc(N(C)C)ccc2O[C@@H]1CN(C)Cc1ccc(C(=O)O)cc1
  MLL AF4-AF9 inh: -1.1
> COc1ccccc1S(=O)(=O)N(C)C[C@H]1Oc2cc(C#CCC(C)C)ccc2S(=O)(=O)N([C@@H](C)CO)C[C@H]1C
  MLL AF4-AF9 inh: -0.5
> CN(C)C(=O)c1ccc(-c2ccc([C@H]3[C@@H](C#N)N[C@@H]3CO)cc2)cc1
  MLL AF4-AF9 inh: -1.7
> CN1C(=O)c2cc(NC(=O)C3CCCC3)ccc2OC[C@H]2O[C@@H](CC(=O)NCCc3ccncc3)CC[C@H]21
  MLL AF4-AF9 inh: -3.3
> CCN1[C@@H]2c3ccc(-c4ccccc4)c(=O)n3C[C@@H]2[C@@H](CO)[C@@H]1C(=O)NCCc1cn(C)cn1
  MLL AF4-AF9 inh: 0.7
> CN(C)CC(=O)N[C@@H]1CC[C@@H](CCNC(=O)C2CC2)O[C@H]1CO
  MLL AF4-AF9 inh: -1.2
> CN1CCN(C(=O)C[C@@H]2CC[C@H]3[C@@H](COC[C@@H](O)CN3CC3CCCC3)O2)CC1
  MLL AF4-AF9 inh: -1.9
> O=C(Nc1cc(F)ccc1F)N1CC(=O)N2[C@H](C1)[C@H](c1ccc(-c3ccc(F)cc3)cc1)[C@@H]2CO
  MLL AF4-AF9 inh: -2.0
> COCC(=O)N1[C@H](C(=O)NCc2ccccc2Cl)[C@@H](CO)[C@@H]2Cn3c(cccc3=O)[C@@H]21
  MLL AF4-AF9 inh: -1.2
> CCCN1[C@@H]2c3ccc(-c4cccc(F)c4)c(=O)n3C[C@H]1[C@H](CO)[C@H]2C(=O)NCC
  MLL AF4-AF9 inh: 0.0
> CCN1[C@H](C(=O)NCCCN(C)C)[C@@H](CO)[C@@H]2Cn3c(ccc(-c4cccc(F)c4)c3=O)[C@@H]21
  MLL AF4-AF9 inh: 0.4
> COc1ccc(CN(C)C[C@H]2OCCCC[C@H](C)Oc3ccc(NC(=O)NC(C)C)cc3C(=O)N([C@H](C)CO)C[C@H]2C)cc1
  MLL AF4-AF9 inh: -0.2
> O=C(C1CCCCC1)N1CC2(C1)[C@@H](c1ccccc1)[C@@H](CO)N2C(=O)NC1CCCC1
  MLL AF4-AF9 inh: 0.6
> N#Cc1cccc(-c2ccc(C3[C@@H]4CN(C(=O)c5ccccn5)C[C@H]3N4)cc2)c1 (some centres not stated)
  MLL AF4-AF9 inh: 1.2&-1.1
> CO[C@H]1CN(C)C(=O)c2ccc(NC(=O)Cc3ccccc3)cc2OC[C@@H](C)N(C)C[C@@H]1C
  MLL AF4-AF9 inh: -1.3

Part of the list above, with the structure last:
| MLL AF4-AF9 inh | mol |
| --- | --- |
| 0.7 | CCN1[C@@H]2c3ccc(-c4ccccc4)c(=O)n3C[C@@H]2[C@@H](CO)[C@@H]1C(=O)NCCc1cn(C)cn1 |
| -1.2 | CN(C)CC(=O)N[C@@H]1CC[C@@H](CCNC(=O)C2CC2)O[C@H]1CO |
| -1.9 | CN1CCN(C(=O)C[C@@H]2CC[C@H]3[C@@H](COC[C@@H](O)CN3CC3CCCC3)O2)CC1 |
| -2.0 | O=C(Nc1cc(F)ccc1F)N1CC(=O)N2[C@H](C1)[C@H](c1ccc(-c3ccc(F)cc3)cc1)[C@@H]2CO |
| -1.2 | COCC(=O)N1[C@H](C(=O)NCc2ccccc2Cl)[C@@H](CO)[C@@H]2Cn3c(cccc3=O)[C@@H]21 |
| 0.0 | CCCN1[C@@H]2c3ccc(-c4cccc(F)c4)c(=O)n3C[C@H]1[C@H](CO)[C@H]2C(=O)NCC |
| 0.4 | CCN1[C@H](C(=O)NCCCN(C)C)[C@@H](CO)[C@@H]2Cn3c(ccc(-c4cccc(F)c4)c3=O)[C@@H]21 |
| -0.2 | COc1ccc(CN(C)C[C@H]2OCCCC[C@H](C)Oc3ccc(NC(=O)NC(C)C)cc3C(=O)N([C@H](C)CO)C[C@H]2C)cc1 |
| 0.6 | O=C(C1CCCCC1)N1CC2(C1)[C@@H](c1ccccc1)[C@@H](CO)N2C(=O)NC1CCCC1 |
| 1.2&-1.1 | N#Cc1cccc(-c2ccc(C3[C@@H]4CN(C(=O)c5ccccn5)C[C@H]3N4)cc2)c1 (some centres not stated) |
| -1.3 | CO[C@H]1CN(C)C(=O)c2ccc(NC(=O)Cc3ccccc3)cc2OC[C@@H](C)N(C)C[C@@H]1C |

More structures follow:
> C[C@@H]1CN([C@H](C)CO)C(=O)c2cc(N(C)C)ccc2O[C@H]1CN(C)Cc1ccc2c(c1)OCO2
  MLL AF4-AF9 inh: 0.4
> O=C(C[C@@H]1CC[C@@H]2[C@H](COC[C@H](O)CN2C(=O)c2ccncc2)O1)NCc1ccc(-c2ccccc2)cc1
  MLL AF4-AF9 inh: -0.7
> CCC(=O)N1CC(=O)N2[C@H](CO)[C@H](c3ccc(C#Cc4cccc(OC)c4)cc3)[C@H]2C1
  MLL AF4-AF9 inh: -1.6
> COc1cccc(-c2ccc(C3[C@H]4CNC[C@@H]3N4CC3CCCCC3)cc2)c1 (some centres not stated)
  MLL AF4-AF9 inh: 3.6
> O=C(N[C@H]1CC[C@H](CCn2cc(Cc3ccccc3)nn2)O[C@H]1CO)c1cnccn1
  MLL AF4-AF9 inh: -1.5
> CCCC#Cc1ccc([C@@H]2[C@@H](CO)N3C(=O)CN(C(=O)NCCC)C[C@@H]23)cc1
  MLL AF4-AF9 inh: 0.5
> C[C@@H](NC(=O)C[C@@H]1CC[C@@H]2[C@@H](COc3ccc(NC(=O)C4CCOCC4)cc3C(=O)N2C)O1)c1ccccc1
  MLL AF4-AF9 inh: -2.2
> CCN1[C@@H]2c3ccc(C4=CCCCC4)c(=O)n3C[C@H]1[C@H](CO)[C@H]2C(=O)NCCc1ccncc1
  MLL AF4-AF9 inh: 0.5
> C[C@@H]1CN([C@H](C)CO)C(=O)c2cc(NS(=O)(=O)c3cn(C)cn3)ccc2O[C@@H](C)CCCCO[C@@H]1CN(C)C(=O)c1ccccc1
  MLL AF4-AF9 inh: -2.0
> C[C@@H]1CN([C@H](C)CO)C(=O)Cc2cc(NC(=O)Nc3cccc4ccccc34)ccc2O[C@@H]1CN(C)Cc1ccc(C(=O)Nc2ccccc2N)cc1
  MLL AF4-AF9 inh: -8.6
> C[C@@H]1CN([C@@H](C)CO)C(=O)c2cc(C#CC3CCCC3)cnc2O[C@@H]1CN(C)C(=O)C1CC1
  MLL AF4-AF9 inh: -4.3
> C/C=C/c1ccc([C@H]2[C@@H](CN(C)C(=O)CC)N(C(=O)C3CC3)[C@H]2CO)cc1
  MLL AF4-AF9 inh: -4.2
> Cc1noc(C)c1S(=O)(=O)Nc1ccc2c(c1)C(=O)N([C@@H](C)CO)C[C@@H](C)[C@H](CN(C)C)OCCCC[C@H](C)O2
  MLL AF4-AF9 inh: -1.8
> Cc1ccc(S(=O)(=O)Nc2ccc3c(c2)C(=O)N([C@H](C)CO)C[C@H](C)[C@@H](CN(C)C(=O)Cc2ccccc2)OCCCC[C@H](C)O3)cc1
  MLL AF4-AF9 inh: -2.7
> CN(C)CC(=O)N1[C@H](CO)[C@@H](c2ccccc2-c2ccc(C(=O)N(C)C)cc2)[C@@H]1C#N
  MLL AF4-AF9 inh: 2.6
> CCCNC(=O)N1CC2(CN(S(=O)(=O)c3cccc(OC)c3)C2)c2c(n(C)c3cc(OC)ccc23)[C@H]1CO
  MLL AF4-AF9 inh: -2.0
> Cc1ccc(S(=O)(=O)Nc2ccc3c(c2)C(=O)N([C@@H](C)CO)C[C@H](C)[C@@H](CN(C)Cc2ccc(C(=O)Nc4ccccc4N)cc2)OCCCC[C@@H](C)O3)cc1
  MLL AF4-AF9 inh: -4.9
> C/C=C/c1ccc2c(c1)O[C@H](CN(C)C(=O)Nc1ccc(F)cc1)[C@H](C)CN([C@@H](C)CO)S2(=O)=O
  MLL AF4-AF9 inh: 2.4
> CCCNC(=O)N1[C@@H]2CNC[C@H]1C2c1ccc(-c2ccccc2)cc1 (some centres not stated)
  MLL AF4-AF9 inh: -0.1&8.1

Bioassay records deposited in PubChem BioAssay by Broad Institute.
